Compound activity: PubChem, ICCB-Longwood Screening Facility, Harvard Medical School
UCH37 inh: human UCH37 deubiquitinating enzyme inhibition. Q9Y5K5. purified proteasome/UCH37, Ub-AMC cleavage fluorescence. inhibition, % (no concentration beside the values). 330,000 tested, 0.33% active;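 active means mean of two replicates above 20%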;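 further: 0% = compound-free wells with enzyme and 100% = wells lacking proteasome; stock transfer was 100 nL into about 20 µL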
Target sequence (Q9Y5K5 whole entry, looked up): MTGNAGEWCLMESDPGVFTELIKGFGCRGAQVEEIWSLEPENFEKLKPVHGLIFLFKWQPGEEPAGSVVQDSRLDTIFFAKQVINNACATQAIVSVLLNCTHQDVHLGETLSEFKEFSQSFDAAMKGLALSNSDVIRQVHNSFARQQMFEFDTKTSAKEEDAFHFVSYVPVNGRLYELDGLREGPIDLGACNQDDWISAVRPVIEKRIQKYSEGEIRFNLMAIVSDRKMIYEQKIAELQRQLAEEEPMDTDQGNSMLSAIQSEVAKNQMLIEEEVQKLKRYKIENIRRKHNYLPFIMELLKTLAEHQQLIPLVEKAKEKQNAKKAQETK
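Material: human UCH37 enzyme supplied as purified proteasome complex / Amount: 0.15 nM proteasome as dispensed / Buffer or medium: pH 7.4 Tris-HCl (50 mM) with ovalbumin, ATP-MgCl2, DTT / Times: preincubation 30 min, reaction 25 min, room temperature / Technique: AMC fluorescence from Ub-AMC cleavage, excitation 355 nm, emission 460 nm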
Ecoli growth: inhibitors of Escherichia coli growth. AID 1053175. 330,000 tested, 0.21% active. OD600 absorbance (test concentration not listed). OD600, 23 h; active compounds read low;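 active means OD600 absorbance below the run mean of sample wells minus 3.6 SD, in any replicate, cut at about 0.56 in these data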;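 further: stock transfer was 300 nL into about 60 µL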
Numbers without * were called inactive. Only part of the results is shown; rates above refer to the full screens.

The first 5 entries, to show the layout:
`ON=C1CC2(CC(=NO)C1=NO)OCCO2` gave UCH37 inh 2.5 and Ecoli growth 0.643.
`Cn1cnnc1SCc1ccc(C(=O)NN=Cc2cccs2)cc1` gave UCH37 inh 10.3 and Ecoli growth 0.715.
COc1ccc2c(c1)[nH]c1c(=O)n(N=Cc3ccc(OC)c(CN4CCCCC4)c3)cnc12 was read as UCH37 inh 11.2 and Ecoli growth 0.689.
`CCCCNC(=S)NN=Cc1ccc(C#N)cc1` gave UCH37 inh 1.5 and Ecoli growth 0.69.
For Cc1ccc(NN=Cc2ccc3c(c2)OCCO3)cc1Cl the results were UCH37 inh -2.2 and Ecoli growth 0.66.

The listing, from the start:
`ON=C1CC2(CC(=NO)C1=NO)OCCO2` gave UCH37 inh 2.5 and Ecoli growth 0.643.
`Cn1cnnc1SCc1ccc(C(=O)NN=Cc2cccs2)cc1` gave UCH37 inh 10.3 and Ecoli growth 0.715.
COc1ccc2c(c1)[nH]c1c(=O)n(N=Cc3ccc(OC)c(CN4CCCCC4)c3)cnc12 was read as UCH37 inh 11.2 and Ecoli growth 0.689.
`CCCCNC(=S)NN=Cc1ccc(C#N)cc1` gave UCH37 inh 1.5 and Ecoli growth 0.69.
For Cc1ccc(NN=Cc2ccc3c(c2)OCCO3)cc1Cl the results were UCH37 inh -2.2 and Ecoli growth 0.66.
Screening CS(=O)(=O)N(CC(=O)NN=Cc1ccco1)c1ccccc1Br returned UCH37 inh 2.1 and Ecoli growth 0.719.
For Cc1ccccc1-n1c(SCC(=O)NN=Cc2c(C)nn(-c3ccccc3)c2C)nc2ccccc2c1=O the results were UCH37 inh 4.3 and Ecoli growth 0.72.
`COc1ccc(C=NNC(=O)c2cc(C)oc2C)cc1OC` gave UCH37 inh 9.5 and Ecoli growth 0.696.
CC(=O)C(=NNc1ccccc1Cl)Sc1cccc2cccnc12 was read as UCH37 inh 2.4 and Ecoli growth 0.704.
For COc1ccc(C=NN2CCN(C)CC2)cc1OC the results were UCH37 inh -0.7 and Ecoli growth 0.746.
Screening Brc1cc2c(cc1C=NNc1nc(N3CCCC3)nc(N3CCOCC3)n1)OCO2 returned UCH37 inh 4.0 and Ecoli growth 0.732.
For Cc1ccsc1C=NN1CCN(C2c3ccccc3-c3ccccc32)CC1 the results were UCH37 inh 5.5 and Ecoli growth 0.817.
`COc1ccc(C=NNC(=O)CC#N)cc1Oc1nc(Cl)ncc1F` gave UCH37 inh 1.6 and Ecoli growth 0.72.
`Cn1cc(C(=O)c2ccc(Cl)cc2Cl)cc1C(=O)NN=C(N)COc1ccccc1` gave UCH37 inh 0.8 and Ecoli growth 0.696.
CC(Cc1ccccc1)=NNC(=O)CNC(=O)c1ccc(C(C)(C)C)cc1 was read as UCH37 inh 1.5 and Ecoli growth 0.679.

Reprinted at random: 2 entries already listed, in no set order.
CC(=O)C(=NNc1ccccc1Cl)Sc1cccc2cccnc12 was read as UCH37 inh 2.4 and Ecoli growth 0.704.
Screening Brc1cc2c(cc1C=NNc1nc(N3CCCC3)nc(N3CCOCC3)n1)OCO2 returned UCH37 inh 4.0 and Ecoli growth 0.732.

Compounds above containing a furan ring, fused or not (2):
Screening CS(=O)(=O)N(CC(=O)NN=Cc1ccco1)c1ccccc1Br returned UCH37 inh 2.1 and Ecoli growth 0.719.
`COc1ccc(C=NNC(=O)c2cc(C)oc2C)cc1OC` gave UCH37 inh 9.5 and Ecoli growth 0.696.

Carrying on.
Screening CC1CC(=NNc2ccc([N+](=O)[O-])cc2[N+](=O)[O-])CC(C)(C)C1 (centres undefined) returned UCH37 inh 7.0 and Ecoli growth 0.72.
O=C(ON=C1CCCc2ccccc21)c1cccc(Cl)c1 was read as UCH37 inh 3.5 and Ecoli growth 0.686.
Screening CCOC(=O)C(CC)C(C)=NNC(=O)c1ccccc1[N+](=O)[O-] (centres undefined) returned UCH37 inh 1.4 and Ecoli growth 0.647.
`CCNC(=O)C(=O)NN=Cc1cc([N+](=O)[O-])ccc1O` gave UCH37 inh 5.1 and Ecoli growth 0.711.
CSC(=NS(=O)(=O)c1ccc(Cl)cc1)c1ccccc1 was read as UCH37 inh 5.7 and Ecoli growth 0.724.
`CC(=NNC(=O)c1ccc(-c2ccccc2)cc1)c1cccc(O)c1` gave UCH37 inh -4.0 and Ecoli growth 0.624.
`COc1ccc(C=NNC(=O)C(C)N(c2ccc(OC)cc2)S(C)(=O)=O)cc1` (centres undefined) gave UCH37 inh 5.2 and Ecoli growth 0.681.
Screening CC(Oc1cccc2cccnc12)C(=O)NN=Cc1ccccc1 (centres undefined) returned UCH37 inh 1.8 and Ecoli growth 0.685.
`CC1(C)C2CC=C(C=NNC(=O)c3ccc(Cl)cc3)C1C2` (centres undefined) gave UCH37 inh 0.7 and Ecoli growth 0.656.
Screening COc1cccc(C=NN2CCN(c3ccccc3OC)CC2)c1 returned UCH37 inh 0.5 and Ecoli growth 0.737.
`C=CCOc1ccc2ccccc2c1C=NO` gave UCH37 inh -1.7 and Ecoli growth 0.696.
For COc1cc(C=NNC(N)=O)ccc1OCC(=O)Nc1cc(C)c(C)cc1Br the results were UCH37 inh 3.3 and Ecoli growth 0.715.
COc1cc(C=NNc2ccc(C(=O)O)cc2)ccc1O was read as UCH37 inh 2.1 and Ecoli growth 0.688.
For CC(C)c1ccc(C=c2sc3n(c2=O)C(N)=C(C#N)C(c2ccc(C(C)C)cc2)C=3C(N)=O)cc1 (centres undefined) the results were UCH37 inh 6.4 and Ecoli growth 0.718.
`COc1cc(C=NNC(=O)c2ccccc2NS(=O)(=O)c2cccs2)ccc1O` gave UCH37 inh 4.6 and Ecoli growth 0.661.
For CC1C(=O)NN=C1C(=O)NN=Cc1ccc(O)cc1O (centres undefined) the results were UCH37 inh 0.2 and Ecoli growth 0.684.
`CC(/C=C/c1ccccc1)=NNC(=O)c1cc(C)[nH]n1` gave UCH37 inh 9.1 and Ecoli growth 0.668.
O=C(Cc1ccccc1)NN=Cc1cc(Br)cc(Br)c1O was read as UCH37 inh -1.4 and Ecoli growth 0.62.
For Cc1cc(C)nc(NN=Cc2ccccc2Cl)n1 the results were UCH37 inh 8.1 and Ecoli growth 0.683.
For C(=Nc1nccs1)Nc1nccs1 the results were UCH37 inh 4.5 and Ecoli growth 0.726.
For C=CS(=O)(=O)N(Cc1ccc(Cl)c(Cl)c1)C[C@@H](O)CO the results were UCH37 inh 4.2 and Ecoli growth 0.699.
CCOC(=O)c1c(N=CN(C)C)sc(C=NNc2ccccc2)c1-c1ccccc1 was read as UCH37 inh 1.0 and Ecoli growth 0.774.
For O=C(NC(CSCc1ccccc1)C(=O)NN=Cc1ccc(O)cc1O)c1ccc([N+](=O)[O-])cc1 (centres undefined) the results were UCH37 inh 6.0 and Ecoli growth 0.741.
Screening CC(CC(=O)Nc1cc(C)ccn1)=NNC(=O)c1cccc(C)c1O returned UCH37 inh -6.9 and Ecoli growth 0.731.
Screening CC(=NNC(=O)C(C)Sc1ccccc1)c1ccc([N+](=O)[O-])cc1 (centres undefined) returned UCH37 inh 4.6 and Ecoli growth 0.65.
Screening CN(C)c1ccc(C=NNc2cc(N3CCOCC3)nc(N3CCOCC3)n2)cc1 returned UCH37 inh -58.1 and Ecoli growth 0.704.
For O=[N+]([O-])c1cccc(-c2ccc(C=NNC(=S)Nc3ccccc3)o2)c1 the results were UCH37 inh 0.0 and Ecoli growth 0.754.
`Nc1nonc1-n1nnc(C(=O)NN=Cc2ccccc2)c1CSc1ccc(Cl)cc1` gave UCH37 inh -4.1 and Ecoli growth 0.669.
Screening O=C(NN=Cc1cccnc1)c1cc(-c2ccc(Br)cc2)nc2ccccc12 returned UCH37 inh 2.2 and Ecoli growth 0.686.
COc1cc(C=NNC(=O)CCn2c3ccccc3c3ccccc32)ccc1O was read as UCH37 inh 3.6 and Ecoli growth 0.716.
For CCOC(=O)c1c2ccc(OCC(=O)NN=Cc3ccc(C)cc3)cc2n2ccccc12 the results were UCH37 inh -16.0 and Ecoli growth 0.774.
COC(=O)c1ccc(C=NNc2nc(N3CCCCC3)nc(N3CCCCC3)n2)cc1 was read as UCH37 inh 0.1 and Ecoli growth 0.683.
CCOc1cc(C=NNC(=O)Cc2ccccc2)ccc1OCC(=O)Nc1ccc(C)c(C)c1 was read as UCH37 inh -5.5 and Ecoli growth 0.785.
`CC(CCc1ccc2c(c1)OCO2)=N/N=C1/NC(=O)CC(C(=O)Nc2ccccc2)S1` (centres undefined) gave UCH37 inh 6.6 and Ecoli growth 0.745.
`O=C(NN=Cc1cc(Cl)cc([N+](=O)[O-])c1O)c1ccccc1NS(=O)(=O)c1cccs1` gave UCH37 inh 13.0 and Ecoli growth 0.691.
For O=C(O)COc1ccccc1C=NNC(=O)c1cccc(S(=O)(=O)Nc2cccc(Cl)c2)c1 the results were UCH37 inh 6.3 and Ecoli growth 0.607.
Cc1c(C=Nn2cnnc2)c2ccccc2n1C was read as UCH37 inh 8.9 and Ecoli growth 0.692.
For O=C(Cc1ccccc1)NN=Cc1ccc(-c2ccc([N+](=O)[O-])cc2)o1 the results were UCH37 inh 1.1 and Ecoli growth 0.709.
Screening CC(=NNC(=O)c1ccc(NS(=O)(=O)c2cccs2)cc1)c1ccccn1 returned UCH37 inh 6.1 and Ecoli growth 0.668.
`O=C(NN=Cc1cc(Cl)ccc1O)C(=O)Nc1ccccc1OC(F)(F)C(F)F` gave UCH37 inh 1.7 and Ecoli growth 0.637.
`CCOC(=O)c1sc(N=CC2=C(O)CC(C)(C)CC2=O)c(C(=O)OCC)c1C` gave UCH37 inh -2.5 and Ecoli growth 0.674.
Screening CC(C)(C)c1ccc(C=NNc2nncn2N)cc1 returned UCH37 inh 2.5 and Ecoli growth 0.643.
For COc1c(Cl)cc(Cl)cc1C=NNC(=O)c1nnn(-c2nonc2N)c1CN1CCC(C)CC1 the results were UCH37 inh 2.1 and Ecoli growth 0.712.
Screening N#CC(=NNc1ccc(Cl)cc1)C(=O)c1ccccc1 returned UCH37 inh 8.9 and Ecoli growth 0.673.
`CC(=NNC(=O)C1COc2ccccc2O1)c1ccc(Br)s1` (centres undefined) gave UCH37 inh 4.5 and Ecoli growth 0.678.

6 structures from above, arranged by formula weight, low to high:
Screening CC(C)(C)c1ccc(C=NNc2nncn2N)cc1 returned UCH37 inh 2.5 and Ecoli growth 0.643.
Screening N#CC(=NNc1ccc(Cl)cc1)C(=O)c1ccccc1 returned UCH37 inh 8.9 and Ecoli growth 0.673.
For O=C(Cc1ccccc1)NN=Cc1ccc(-c2ccc([N+](=O)[O-])cc2)o1 the results were UCH37 inh 1.1 and Ecoli growth 0.709.
`CCOC(=O)c1sc(N=CC2=C(O)CC(C)(C)CC2=O)c(C(=O)OCC)c1C` gave UCH37 inh -2.5 and Ecoli growth 0.674.
COC(=O)c1ccc(C=NNc2nc(N3CCCCC3)nc(N3CCCCC3)n2)cc1 was read as UCH37 inh 0.1 and Ecoli growth 0.683.
For COc1c(Cl)cc(Cl)cc1C=NNC(=O)c1nnn(-c2nonc2N)c1CN1CCC(C)CC1 the results were UCH37 inh 2.1 and Ecoli growth 0.712.

Next section:
Screening Nc1nonc1-n1nnc(C(=O)NN=Cc2ccc(O)cc2)c1COc1ccc(F)cc1 returned UCH37 inh 1.5 and Ecoli growth 0.741.
Screening O=C(CSc1ncccn1)NN=Cc1ccc2c(c1)OCO2 returned UCH37 inh -0.6 and Ecoli growth 0.648.
`C/C(C=Nn1c(-c2ccc(Cl)cc2)n[nH]c1=S)=C\c1ccco1` gave UCH37 inh 6.5 and Ecoli growth 0.678.
`S=c1[nH]nc(-c2cccnc2)n1N=C/C=C/c1ccccc1` gave UCH37 inh 6.6 and Ecoli growth 0.684.
Screening CC(C)NC(=O)CC(=O)NN=Cc1c(F)cccc1Cl returned UCH37 inh 3.4 and Ecoli growth 0.712.
Screening C#CCOc1ccc(C=NO)cc1Cl returned UCH37 inh 2.0 and Ecoli growth 0.71.
O=[N+]([O-])c1cccc(C=Nn2cnnc2)c1 was read as UCH37 inh 0.2 and Ecoli growth 0.618.
O=C(C=NO)Nc1ccccc1C(=O)O was read as UCH37 inh 2.6 and Ecoli growth 0.721.
`CC(=NNC(=O)c1ccc(Cl)s1)c1cccnc1` gave UCH37 inh -1.3 and Ecoli growth 0.723.
For ON=Cc1ccc(OCC(O)COc2ccc(C=NO)cc2)cc1 (centres undefined) the results were UCH37 inh 1.3 and Ecoli growth 0.772.
Screening CCC1CCCC1=NNC(=O)c1ccccc1C (centres undefined) returned UCH37 inh 6.1 and Ecoli growth 0.68.
S=c1[nH]nc(C2CCCCC2)n1N=Cc1ccc(Br)cc1 was read as UCH37 inh -0.7 and Ecoli growth 0.707.
`O=C(NN=Cc1cc(Br)cs1)C1COc2ccccc2O1` (centres undefined) gave UCH37 inh 1.6 and Ecoli growth 0.731.
`Cc1nc2sc3c(c2c(=O)n1N=Cc1cccnc1)CCCC3` gave UCH37 inh 2.2 and Ecoli growth 0.711.
`CCOC(=O)C1=C(c2ccccc2)N=c2sc(=Cc3ccco3)c(=O)n2C1c1cccs1` (centres undefined) gave UCH37 inh 5.9 and Ecoli growth 0.742.
`CCC(C(=O)NN=Cc1cccnc1)c1ccccc1` (centres undefined) gave UCH37 inh 4.7 and Ecoli growth 0.652.
`COc1ccc(C=NNC(=O)c2ccccc2O)cc1Cn1cc([N+](=O)[O-])cn1` gave UCH37 inh -2.8 and Ecoli growth 0.727.
